# Assay outcomes (PubChem BioAssay)
# Biofilm kill mix = mixture kills Candida albicans biofilm cells | C. albicans biofilm persisters + clotrimazole, fluorescence viability; primary screen in compound mixtures of four per well | inhibition, % at 7.6 µM | actives 0.02% (n = 120,000);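 active means inhibition above 30.3% in the primary screen of four-compound pools, then above 30% when the compound was retested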;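 further: compounds exposed to preformed 24 h biofilms for 48 h; the number belongs to the whole pool; some results filed as inactive read as strong as hits; inactives centre near 12; 0% = biofilm with clotrimazole alone and 100% = kill control; retested singly at about 60 µM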
#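 Incubation: 24 h biofilm formation, then 48 h compound exposure, 37 °C | Material: C. albicans biofilms | Buffer or medium: RPMI/MOPS medium, pH 7.0 | Measured by: 2-h Alamar Blue fluorescence, 535/590 nm excitation/emission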
# * = called active by the depositor. An excerpt. The share of hits here may be higher or lower than overall.
SMILES,Biofilm kill mix
C=CCN1C(=O)C(CC(=O)O)SC1=Nc1ccc(C)cc1 (stereo not given),15.2
C#CC(=O)N(c1ccc(OC)cc1OC)C(C(=O)NC1CCCC1)c1cccs1 (stereo not given),14.5
COc1cccc(C(=O)c2ncc(C(F)(F)F)cc2Cl)c1,3.3
Clc1cccc(Cl)c1/C=N/Nc1c(Cl)cncc1Cl,14.7
CCOC(=O)c1csc(-c2ccc([N+](=O)[O-])cc2)n1,12.1
COc1ccc(NC(=O)c2sc(Cl)nc2-c2ccccc2)cc1,10.2
COc1ccc(OC)c(/C=C/C(=O)OCC(=O)Nc2cccc(Oc3ccccc3)c2)c1,3.5
CC(C)=N/N=C1/NC(=O)C(CC(=O)Nc2cc(Cl)ccc2C)S1 (stereo not given),11.4
Cc1cccc2c(=O)c(C(=O)NCCCN3CCOCC3)c[nH]c12,7.0
CCC1CCCCN1C(=S)Nc1ccc(SC(F)F)cc1 (stereo not given),5.4
CC(=O)COc1cc(C)cc2oc(=O)cc(-c3ccccc3)c12,12.8
OC(COc1ccc(-c2ccccc2)cc1)CN1CCOCC1 (stereo not given),4.3

# As a short view, some entries already given.
SMILES,Biofilm kill mix
CC(C)=N/N=C1/NC(=O)C(CC(=O)Nc2cc(Cl)ccc2C)S1 (stereo not given),11.4
Cc1cccc2c(=O)c(C(=O)NCCCN3CCOCC3)c[nH]c12,7.0

# Carrying on:
SMILES,Biofilm kill mix
Cn1c(CC(=O)Nc2ccc(F)cc2)c(Sc2ccccc2)c2ccccc21,16.4
COc1ccccc1OCCCOc1ccc(C)cc1Br,-7.7
CCOc1cc(Cl)c(NC(=O)CC)cc1OCC,14.4
OC1(c2ccc3c(c2)OCO3)CCN(Cc2ccc(F)cc2)CC1,26.1
COCC1CCCN(Cc2nc(-c3ccc4c(c3)OCO4)no2)C1 (stereo not given),13.6
NC(=O)CSc1nc(-c2ccccc2)nc2c1CCCC2,16.6
COc1ccccc1N(CC(O)Cn1ccnc1C)S(=O)(=O)c1ccc(C)cc1 (stereo not given),22.7
CCN=c1scc(C)n1/N=C/c1cc(Br)c(O)c(Br)c1,12.5
O=C(NN=C1CCCCCC1)C(=O)Nc1cccc(Br)c1,7.4
COc1ccccc1-c1nnc(N)s1,19.3
Cn1c(=O)[nH]c(=O)c2c1nc(NCCCO)n2CCOc1ccccc1,1.7
CC(=O)OC[C@H]1COc2ccc3ccccc3c2[C@H]1N(C)C(C)=O,1.9
CCN1CCCn2c1nc1c2c(=O)n(C)c(=O)n1C,10.7
Cc1ccc(-n2nnc3c(=O)n(Cc4ccccn4)cnc32)cc1C,5.4
CNC(=S)N/N=C/c1cn(Cc2c(F)cccc2Cl)c2ccccc12,17.2
COc1ccc(COC(=O)Nc2c(SC)nsc2SC)cc1,7.0
Cc1cc(-n2[nH]c(C)c(C)c2=O)nc(-c2ccccc2O)n1,6.8
Cc1nn(C)c(C(=O)NNC(=O)Nc2cccc(C(F)(F)F)c2)c1Cl,-3.6
Oc1ccccc1/C=N/Nc1ncc(Br)cn1,0.5
CCCC(=O)NC(=S)Nc1cccc(-c2nc3ncccc3o2)c1,9.0
CNC(=S)NNC(=O)c1ccccc1Br,4.0
CC(C)COc1ccc(N)cc1OCC(C)C,2.8
COC(=O)c1c(NC(NC(=O)CC(C)C)C(Cl)(Cl)Cl)sc2c1CCC2 (stereo not given),11.7
COC(=O)CCCNC(=O)c1ccccn1,14.2
Cc1cc(Cl)ccc1OCC(=O)N1CCN(c2ncccn2)CC1,7.3
CCOC(=O)c1[nH]c2ccccc2c1NC(=S)Nc1cc(C)ccc1C,1.2
COC(=O)c1cc(C(=O)Nc2nnc(CC(C)(C)C)s2)cc([N+](=O)[O-])c1,12.8
COc1cc(CC(=O)O)ccc1OCc1ccccc1,23.5
Cc1c(C(C)C)c(=O)n(-c2ccc(S(=O)(=O)NC3CCCCC3)cc2)n1C,6.2
O=C1CCC(=O)N1c1ccc(S(=O)(=O)N2CCCC2)cc1,13.1
Cc1cc([N+](=O)[O-])ccc1NC(=O)Nc1ccc(F)cc1F,12.4
COc1ccc2[nH]c3c(=O)n(CCCCC(=O)NCCC(C)C)c(=S)[nH]c3c2c1,11.3
O=C(c1cc2cc([N+](=O)[O-])ccc2oc1=O)N1CCOCC1,11.6
COc1ccc(CCN2C(=O)CS/C2=N\NC(=O)c2ccc(C(C)(C)C)cc2)cc1OC,11.7
CCOP(=O)(OCC)c1nc(-c2cccc3ccccc23)oc1NCCc1ccc(OC)cc1,12.8
COCCC1CCCCN1Cc1cn(-c2ccccc2)nc1-c1ccc2c(c1)OCO2 (stereo not given),13.3
Cc1c(-c2ccccn2)c(=O)[nH]n1-c1ccc(F)cc1,5.6
O=c1c(Cc2c(F)cccc2Cl)c(O)ccn1CCCn1ccnc1,-0.5
CCOC(=O)c1c(N)nn(C(=O)c2ccccc2)c1-c1ccccc1,9.3
Cc1nn(Cc2ccc([N+](=O)[O-])cc2)c(=O)n1-c1ccc(Cl)cc1,14.1
CS(=O)(=O)n1nc(C(=O)N2CCOCC2)nc1N,3.2
CC(=O)C(=Cc1ccc(O)cc1)C(C)=O,21.8
C/C(=N\NC(=O)c1ccc(NS(=O)(=O)c2cccs2)cc1)c1ccncc1,16.1
Cc1cc(C)n(CC(=O)N/N=C/c2c[nH]c3ccccc23)n1,22.3
COCCn1c(=S)[nH]c2cc(C(=O)N3CCc4ccccc4C3)ccc2c1=O,10.5
CCn1cc(C(=O)O)c(=O)c2cc(F)c(N3CCN(S(=O)(=O)c4ccc5c(c4)OCCO5)CC3)cc21,2.7
Cc1ccc(NC(=O)CSc2nnc(C)c(=O)n2N)cc1,7.2
Oc1ccc(-c2n[nH]c(C(F)(F)F)c2-c2ccccc2)c(O)c1,18.4
O=C(CSc1ncn[nH]1)Nc1ncc(C(F)(F)F)cc1Cl,15.4
Cc1cccc(C)c1NC(=O)C1(N(C(=O)c2ccccn2)c2ccc(O)cc2)CCCCC1,6.0
COc1cccc2cccc(/C=N/n3cnnc3)c12,17.5
COc1ccc2c(c1)CC/C(=C/c1ccco1)C2=O,15.4
COCCn1c(-c2ccccc2Cl)nc2c(c(=O)c3ccccc3n2C)c1=O,12.4
COc1cc2c3nnc(-c4ccc(F)cc4)c-3cn(Cc3ccccc3F)c2cc1OC,11.3
COc1cccc(OC)c1C(=O)NCCSC1CCCCC1,13.0
CC1CCN(CCOc2ccccc2-c2ccccc2)CC1,18.1
Cc1cccnc1CN1CCN(C(=O)CCc2nnc(CCc3ccccc3)o2)CC1,24.3
N#C/C(=C\c1c[nH]c2ccccc12)C(N)=O,1.8
CCS(=O)(=O)N1CCC(C(=O)Nc2cc([N+](=O)[O-])ccc2C)CC1,13.5
COc1cc2c(cc1OC)-c1cc3ccc4c(c3c[n+]1CC2)OCO4,13.2
# The listing continues.
SMILES,Biofilm kill mix
O=C(CCNC(=O)c1ccco1)Nc1cccc(Br)c1,4.7
O=[N+]([O-])c1ccc(O)c(/C=N/Nc2nn[nH]n2)c1,6.2
COC(=O)c1ccc(N/C=C\C(=O)c2ccc3c(c2)OCO3)cc1,13.7
COc1ccc(NS(=O)(=O)c2ccc3c(c2)NC(=O)CO3)cc1,6.8
O=C(c1cccs1)N1CCC(C(=O)N2CCN(Cc3ccc4c(c3)OCO4)CC2)CC1,32.1
CC1CCC2(CC1)NC(=O)N(CC(=O)Nc1ccc(N3CCOCC3)cc1)C2=O (stereo not given),16.2
O=C(CN1CCN(S(=O)(=O)/C=C/c2ccccc2)CC1)Nc1ccccc1N1CCOCC1,14.4
Cc1ccc(CNC(=O)C2CC(c3ccccc3F)=NO2)cc1 (stereo not given),15.1
O=C(Nc1sc2c(c1C(=O)N1CCOCC1)CCCCC2)c1cccnc1,5.3
CC1=CC(=O)c2c(O)ccc(O)c2C1=O,7.9
CCCS(=O)(=O)c1c(S(=O)(=O)CCC)c2c(N)cccn2c1C(=O)OC,12.3
CCN1CCc2nc(N)sc2C1,4.9

# Given as labelled records: 4 of the compounds above
> O=C(CCNC(=O)c1ccco1)Nc1cccc(Br)c1
  Biofilm kill mix: 4.7
> O=[N+]([O-])c1ccc(O)c(/C=N/Nc2nn[nH]n2)c1
  Biofilm kill mix: 6.2
> COC(=O)c1ccc(N/C=C\C(=O)c2ccc3c(c2)OCO3)cc1
  Biofilm kill mix: 13.7
> COc1ccc(NS(=O)(=O)c2ccc3c(c2)NC(=O)CO3)cc1
  Biofilm kill mix: 6.8

# (more compounds)
SMILES,Biofilm kill mix
Cc1ccccc1N(C(=O)Cn1nnc(-c2ccc(F)cc2)n1)C(C(=O)NC(C)(C)C)c1ccncc1 (stereo not given),-6.5
Cc1ccccc1-n1c(-c2ccco2)n[nH]c1=S,17.9
Cc1cc(S(=O)(=O)Nc2ccc3c(c2)COC3=O)ccc1F,14.4
CC(=O)Nc1ccc(S(=O)(=O)Nc2cccc(-c3cn4cccnc4n3)c2)cc1,17.2
O=C(Cn1ncc(N2CCOCC2)c(Br)c1=O)c1ccc(Cl)cc1,-2.0
C/C(CC(=O)Nc1ccc(Cl)cc1Cl)=N\NC(=O)c1ccncc1,7.8
CCn1c(SCC#N)nc2ccccc2c1=O,19.7
CSC1=NC2(CC(c3ccccc3)Oc3cc(O)ccc32)CC(C)(C)N1 (stereo not given),9.2
CN(C)/C=C/C1=CC(=O)CC(C)(C)C1,12.0
COc1cc(-c2onc3ccc(Br)cc23)cc(OC)c1OC,8.5
Cc1ccc2nc(NC(=O)COC(=O)c3ccncc3)sc2c1,5.3
CC1CCC2(CC1)NC(=O)N(CC(=O)NC(=O)Nc1ccc3c(c1)OCCO3)C2=O (stereo not given),2.3

# Among those listed so far, these contain a Cl atom.
SMILES,Biofilm kill mix
COc1cccc(C(=O)c2ncc(C(F)(F)F)cc2Cl)c1,3.3
Clc1cccc(Cl)c1/C=N/Nc1c(Cl)cncc1Cl,14.7
COc1ccc(NC(=O)c2sc(Cl)nc2-c2ccccc2)cc1,10.2
CC(C)=N/N=C1/NC(=O)C(CC(=O)Nc2cc(Cl)ccc2C)S1 (stereo not given),11.4
CCOc1cc(Cl)c(NC(=O)CC)cc1OCC,14.4
CNC(=S)N/N=C/c1cn(Cc2c(F)cccc2Cl)c2ccccc12,17.2
Cc1nn(C)c(C(=O)NNC(=O)Nc2cccc(C(F)(F)F)c2)c1Cl,-3.6
COC(=O)c1c(NC(NC(=O)CC(C)C)C(Cl)(Cl)Cl)sc2c1CCC2 (stereo not given),11.7
Cc1cc(Cl)ccc1OCC(=O)N1CCN(c2ncccn2)CC1,7.3
O=c1c(Cc2c(F)cccc2Cl)c(O)ccn1CCCn1ccnc1,-0.5
Cc1nn(Cc2ccc([N+](=O)[O-])cc2)c(=O)n1-c1ccc(Cl)cc1,14.1
O=C(CSc1ncn[nH]1)Nc1ncc(C(F)(F)F)cc1Cl,15.4
COCCn1c(-c2ccccc2Cl)nc2c(c(=O)c3ccccc3n2C)c1=O,12.4
O=C(Cn1ncc(N2CCOCC2)c(Br)c1=O)c1ccc(Cl)cc1,-2.0
C/C(CC(=O)Nc1ccc(Cl)cc1Cl)=N\NC(=O)c1ccncc1,7.8

# Next records
SMILES,Biofilm kill mix
CCOc1ccc(C(C(=O)NC2CCCC2)N(CCCO)C(=O)c2ccc(-c3ccccc3)[nH]2)cc1 (stereo not given),17.1
O=S(=O)(Cc1ccc(Cl)cc1)N1CCN(Cc2ccc3c(c2)OCO3)CC1,20.8
C#CCOCCOCCOCCNc1nc(N2CCN(C(=O)[C@H]([C@@H](C)CC)n3cc(CCCN=C(N)N)nn3)CC2)nc(N2CCN(C(=O)[C@H]([C@@H](C)CC)n3cc(CCCN=C(N)N)nn3)CC2)n1,0.8
Cc1cccc(NC2=C/C(=N/S(=O)(=O)c3cccs3)c3ccccc3C2=O)c1,17.8
CC(C)OC(=O)c1cccnc1N1CCN(c2cccc(Cl)c2)CC1,10.6
O=C1C=CN(C(=O)Oc2ccccc2)CC1,10.4
CC(NC(=O)OCc1ccccc1)C(=O)Oc1cc2oc(=O)cc(-c3ccccc3)c2cc1Cl (stereo not given),13.4
CCN(Cc1ccccc1)C(=O)CSc1nncn1C,14.0
CN(CC(=O)Nc1ccccc1F)CC(=O)Nc1ccccc1Br,12.9
Cc1nc(NC(=O)c2ccc([N+](=O)[O-])cc2Cl)sc1C(=O)N(C)C,3.3
NS(=O)(=O)c1ccc(CCNC(=O)CN2CCN(c3ccccc3O)CC2)cc1,11.9
Nc1nc2c(F)cccc2s1,2.9
CCOC(=O)c1sc2nc(C)nc(NCc3cccnc3)c2c1C,-2.8
CC1=NN(c2ccc([N+](=O)[O-])cc2)C(=O)/C1=C\N(C)C,6.9
CCC(=O)N/C(=N/c1nc(C)cc(C)n1)Nc1ccc(OC)cc1,13.3
CCC(NC(=S)Nc1ccccc1)C(=O)O (stereo not given),23.6
O=C(NCC(=O)N1CCN(S(=O)(=O)/C=C/c2ccccc2)CC1)c1ccc(Cl)cc1,19.2
